NS1 inh: inhibitors of influenza NS1 protein function; 270,000 compounds, 0.4% hits; Potency, µM (top dose mostly 46.1 µM), without a hit: top-dose activity, positive = more growth; S. cerevisiae slowed by influenza A NS1, growth recovery by OD600; active means well fitted rising curve with a large enough effect; inconclusive means small, poorly fitted or top-dose-only effect; inactive means no such curve, though single readings can be large or run the other way; also: nearly all actives have a fitted effect of over 50% in size
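A cell-based growth assay was used: compounds that relieve NS1-induced slow growth of budding yeast raise OD600. Assay medium was yeast nitrogen base with ammonium sulphate and -URA supplement, pH 6.0, with 2% galactose.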
Cruzain inh noDet: inhibitors of Trypanosoma cruzi cruzain without detergent; 200,000 compounds, 2.3% hits; P25779; Potency, µM, without a hit: max response, negative = inhibition, actives largely listed as inhibitors; purified cruzain, Z-FR-AMC fluorescence, no detergent; AID 1476;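 also: plate controls were enzyme without inhibitor for no effect and buffer without enzyme for full effect; nearly all actives have a fitted effect of over 40% in size; top concentration of the series not given in the record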
Target sequence (P25779 123-467 limits assumed): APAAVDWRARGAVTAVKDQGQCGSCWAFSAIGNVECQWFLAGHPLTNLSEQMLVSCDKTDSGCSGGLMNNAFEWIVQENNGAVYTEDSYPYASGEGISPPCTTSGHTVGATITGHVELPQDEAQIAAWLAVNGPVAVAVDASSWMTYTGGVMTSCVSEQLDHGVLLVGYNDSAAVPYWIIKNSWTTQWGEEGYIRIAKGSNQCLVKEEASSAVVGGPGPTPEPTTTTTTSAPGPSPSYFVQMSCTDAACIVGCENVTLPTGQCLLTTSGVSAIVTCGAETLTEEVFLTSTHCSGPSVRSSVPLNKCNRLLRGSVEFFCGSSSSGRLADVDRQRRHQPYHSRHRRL
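Detergent-free condition (0.00005% Triton X-100) in acetate buffer pH 5.5 with DTT. 1.5 nM enzyme and compound were pre-mixed 15 min, then 2 uM Z-FR-AMC substrate added; reaction progress from fluorescence change between first and third reads (60 s).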
SARS PLpro yeast: SARS-CoV PLP inhibition in yeast; AID 485353; 330,000 compounds, 0.19% hits; S. cerevisiae expressing SARS-CoV PLpro, growth rescue; control for the full effect not named in the record; Potency, µM (highest dose often 32.9 µM), for inactives: top-dose activity, positive = growth rescue; active means well fitted rising curve with a large enough effect; inconclusive means small, poorly fitted or top-dose-only effect; inactive means no such curve, though single readings can be large or run the other way; also: 0% is about no effect; nearly all actives have a fitted effect of over 55% in size; growth read by luminescence after 48 h
LASV entry inh: Lassa virus entry inhibition | Lassa virus pseudotype entry inhibition, cell reporter; control for the full effect not named in the record | Potency, µM (highest dose often 37.9 µM), inactives show top-dose activity change, negative = inhibition, most hits filed as inhibitors | 300,000 compounds, 1.2% hits | AID 540256; active means well fitted inhibition curve with a large enough effect; inconclusive means small, poorly fitted or top-dose-only effect, or effect the other way; inactive means flat fitted curve, though single readings scatter; tested in HEK293 cells; also: % is scaled to controls: 0 for no effect and ±100 for the full control effect; nearly all actives have a fitted effect of over 50% in size; luciferase read-out
2A StopGo: lowers the luciferase signal of an FMDV 2A StopGo reporter; human cells with a luciferase reporter of 2A StopGo recoding; control for the full effect not named in the record; Potency, µM (titrated, usually from 57.9 µM), without a hit: at the top dose signal change, negative = less light; 410,000 compounds, 1.2% hits; AID 1159524; active = well fitted falling curve with a large enough effect; inconclusive = small, poorly fitted or top-dose-only effect; inactive = no such curve, though single readings can be large or run the other way; tested in HEK293T cells; also: % is scaled to controls: 0 for no effect and ±100 for the full control effect; nearly all actives have a fitted effect of over 45% in size; luciferase light after 4 h
Cruzain inh Det: blocks cruzain activity in presence of Triton detergent; purified cruzain, Z-FR-AMC fluorescence, 0.01% Triton; P25779; AID 1478; Potency, µM, for inactives: max response, negative = inhibition, actives largely listed as inhibitors; 200,000 compounds, 0.43% hits;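 also: plate controls were neutral wells for no effect and buffer without enzyme for full effect; nearly all actives have a fitted effect of over 40% in size; top concentration of the series not given in the record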
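Purified cruzain (1.5 nM final) was preincubated with compounds for 15 min at room temperature in 100 mM sodium acetate pH 5.5, 5 mM DTT, 0.01% Triton X-100. Reaction started with 2 uM Z-FR-AMC; AMC fluorescence change over 60 s gave activity.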
MARV entry inh: Marburg virus entry inhibition; Marburg virus pseudotyped entry inhibition, cell reporter; control for the full effect not named in the record; about a third of the inactives were read at about 46 µM; Potency, µM (highest dose often 37.8 µM), without a hit: top-dose activity change, negative = inhibition, most hits filed as inhibitors; 300,000 compounds, 1.8% hits; AID 540276; active = well fitted inhibition curve with a large enough effect; inconclusive = small, poorly fitted or top-dose-only effect, or effect the other way; inactive = flat fitted curve, though single readings scatter; tested in HEK293 cells; about a fifth of its hits are not listed in these tables; also: % is scaled to controls: 0 for no effect and ±100 for the full control effect; luciferase read-out
RE007 growth inh: less growth of the S. pombe RE007 Vpr strain. S. pombe RE007 Vpr strain, BacTiter-Glo ATP luminescence, 24 h; control for the full effect not named in the record. Potency, µM (doses to about 92.2 µM), inactives show at the top dose activity change, negative = less growth. 360,000 compounds, 0.21% hits. AID 651644; active = well fitted falling curve with a large enough effect; inconclusive = small, poorly fitted or top-dose-only effect; inactive = no such curve, though single readings can be large or run the other way;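 also: % is scaled to controls: 0 for no effect and ±100 for the full control effect; nearly all actives have a fitted effect of over 50% in size; the assay follows cell death caused by Vpr and the record does not say whether a fall means rescue or toxicity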
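Fission yeast strain RE007, carrying one chromosomally integrated HIV-1 vpr copy, was seeded at OD 0.01 in PMG+AL medium with 23 nL pinned compound. After 24 h at 30 °C and 99% humidity, viability was read by BacTiter-Glo luminescence.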
Active calls of the source: *; ? = inconclusive; . = not tested or not shown; & = joins results of further samples; [ ] = remark or other dose. Unless noted, calls follow the shape of the dose curve; as a rule, active = well fitted curve in the direction sought with a large enough effect; inconclusive = small, poorly fitted or top-dose-only effect, or another doubt; inactive = no such curve, though single readings can be large; an effect the other way counts as inactive or inconclusive. Potency is read from the fitted curve at half-maximal effect.

SMILES	NS1 inh	Cruzain inh noDet	SARS PLpro yeast	LASV entry inh	2A StopGo	Cruzain inh Det	MARV entry inh	RE007 growth inh
COc1ccc(Cl)cc1Nc1nc(N2CCCC2)nc(N2CCCC2)n1	?	-7%	-8%	.	.	4.3%	1%	.
Cc1cc2nc(CCN(C(=S)NCC3CCCO3)C3CCCC3)[nH]c2cc1C (centres undefined)	-35%	.	-1%	.	0%	.	.	-12%
O=C1N(CCCN2C(=O)C3(OCCO3)c3ccccc32)c2ccccc2C12OCCO2	-25%	24%	-4%	-6%	?	-1.4%	4%	-6%
COc1ccc(NC(=O)CN2CCC(NC(=O)c3ccc(OC)cc3)CC2)cc1	11%	.	-2%	.	-15%	.	.	-17%
CCN(CC)CCCNC(=O)c1ccc2c(c1)NC(=O)C(CS(=O)(=O)Cc1ccc(F)cc1Cl)N2 (centres undefined)	.	?	.	-5%[46.1 µM]	10%	-1.0%	.	.
O=C(CNCC1CCCCC1)Nc1cccc(S(=O)(=O)N2CCOCC2)c1	-3%	.	0%	.	52%[activator]	.	.	-14%
Cc1ccc(C(=O)CSc2nnc3c4ccccc4nc(C(C)(C)C)n23)cc1	12%	5%	-6%	?	-17%	-6.1%	6.3µM*	-15%
COc1ccc(Oc2cccc(Cl)c2CNC(=O)CC(C)(C)CC(=O)O)cc1	8%	.	-1%	-22%[46.1 µM]	10%	.	2%[46.1 µM]	27%
CCC(=O)/C=C1\Sc2ccc(OC)cc2N1CC	-31%	-18%	-7%	-21%	0%	-3.0%	1%	5%
CCCNC(=O)Cn1nc(-c2ccc(F)cc2)c2cnc3ccc(F)cc3c21	.	-3%	.	?	-4%	-1.8%	.	.
Cc1ccc(CNC(=O)c2cc3c(=O)n4ccccc4nc3n(CC3CCCO3)c2=N)cc1 (centres undefined)	-3%	-4%	-6%	?	-5%	?	?	4%
COc1ccc(Nc2ncnc3ccc(Br)cc23)cc1OC	-4%	.	2%	-15%	-9%	.	?	-12%
CCSc1nnc(NC(=O)C2C3CCC(C3)C2C(=O)O)s1 (centres undefined)	1%	.	0%	-1%[46.1 µM]	-6%	.	19%[46.1 µM]	14%
CCOc1cc(C(=O)N2CCn3c4c(c5cc(C)ccc53)CCCC42)cc(OCC)c1OCC (centres undefined)	.	-12%	.	0%[46.1 µM]	-25%	-0.1%	5%[46.1 µM]	.
COc1ccc2c(c1)CCCC(Br)C2=O (centres undefined)	.	.	.	?	?	.	?	-8%
COc1ccccc1NC(=O)C1=C(C)Nc2nc(SCc3ccccc3Cl)nn2C1c1cccnc1 (centres undefined)	.	15%	.	4%[46.1 µM]	-18%	-1.0%	7%[46.1 µM]	.
O=C(Cn1c(=O)n(Cc2ccccc2)c(=O)c2sc3ccccc3c21)Nc1ccccc1	.	1%	.	10%[46.1 µM]	-2%	0.8%	2%[46.1 µM]	.
COC(=O)C(C)N(c1ccc(C)cc1)S(=O)(=O)c1c(C)[nH]c(=O)[nH]c1=O (centres undefined)	-2%	0%	3%	17%	3%	-3.1%	12%	7%
CC(=O)C1=C(C)N(Cc2ccccc2)C(=O)N[C@H]1c1ccco1	1%	.	0%	.	2%	.	2%[14.2 µM]	-1%
Cc1ccccc1NC(=S)N(C)Cc1cn(C)c2ccccc12	18%	-3%	-3%	-2%	7%	-3.1%	7%	16%
Cn1cc(-c2ccc(Cl)cc2)cc(C#N)c1=O	.	.	3%	8%	-8%	.	-15%[46.1 µM]	0%
CCOc1ccc(Cl)cc1CNCCCSc1nc(C)cc(C)n1	-17%	.	6%	.	-15%	.	.	-7%
O=S(=O)(Nc1ccc(O)c2ccccc12)c1cccs1	-41%	.	-11%	?	?	.	?	-9%
COc1ccc(-n2c(=O)c3c4c(sc3n(CC(N)=O)c2=O)CCCCC4)cc1	9%	.	2%	6%	-10%	.	?	-14%
Cc1cccc(N2CCN(C(=O)c3cccc(NC4=NC5CS(=O)(=O)CC5S4)c3)CC2)c1C (centres undefined)	6%	.	10%	.	-23%	.	.	4%
C=CCn1c(COc2ccccc2F)nnc1SCC(=O)Nc1cc(C)on1	2%	.	1%	-4%	0%	.	11%[46.1 µM]	3%
Cc1ccccc1NC(=O)Cc1nc(COC(=O)c2ccccn2)cs1	.	.	-6%	-1%[46.1 µM]	2%	.	18%	-16%
COc1ccccc1NC(=O)C1=C(C)Nc2nnnn2C1c1ccncc1 (centres undefined)	-1%	-10%	2%	-1%	-15%	5.8%	-1%&-1%	-3%
CCCOc1ccc(Cc2c(O)nc(SC)[nH]c2=O)cc1	9%	.	0%	-2%[46.1 µM]	-15%	.	?	-9%
O=C(N/N=C/c1cc(Br)cs1)C(O)c1ccccc1 (centres undefined)	-17%	.	?	23%	87%[activator]	.	-3%	18%
C/C=C/c1ccc(OCC(=O)Nc2cc(S(=O)(=O)N3CCOCC3)ccc2N2CCCC2)c(OC)c1	.	.	-1%	?	1%	.	?	0%
O=[N+]([O-])c1ccc(/C=N/Nc2ncc(-c3ccccc3)cn2)cc1	-1%	.	0%	1%	4%	.	-18%[46.1 µM]	-18%
Cc1cccn2c(=O)c3cc(C(=O)NC4CCCC4)c(=N)n(CCc4ccccc4)c3nc12	1%	.	0%	1%[46.1 µM]	-27%	.	?	-4%
CCN(CCCNS(=O)(=O)c1ccc2c(c1)CCN2C(C)=O)c1cccc(C)c1	-11%	8%	2%	.	-7%	-0.1%	.	2%
Cc1coc2c1c(C)cc1oc(=O)cc(C)c12	.	-8%	.	19%[46.1 µM]	0%	-3.2%	-8%[46.1 µM]	.
CCCC(=O)n1nc(-c2ccc(Cl)cc2)nc1SC	-5%	5%	-4%	-14%	38%[activator]	0.0%	?	14%
Oc1ccccc1CN1CCCC(N2CCc3ccccc3C2)C1 (centres undefined)	5%	.	6%	16%[46.1 µM]	3%	.	-18%[46.1 µM]	-19%
CN(Cc1ccccc1)C(=O)CCS(=O)(=O)c1ccc2c(c1)oc(=O)n2C	4%	-9%	-3%	10%&-17%[46.1 µM]	-5%&-8%	-0.1%	?	-5%
Cc1coc2cc3oc(=O)c(CCC(=O)NCC(=O)O)c(C)c3cc12	2%	.	1%	.	-16%	.	.	-4%
Nc1nc(Nc2cccc(F)c2)nc(NCCO)c1[N+](=O)[O-]	4%	.	-1%	-4%	-10%	.	1%	14%
CC(=NC(C)C)C1=C(O)C(C)OC1=O (centres undefined)	5%	3%	7%	0%	-11%	-1.1%	6%	27%
COc1ccc(N(C)S(=O)(=O)c2ccc3c(c2)CC(C)N3C(=O)C2CC2)c(OC)c1 (centres undefined)	?	.	0%	?	-18%	.	-25%[46.1 µM]	1%
COc1cc(-n2c(N)c(C(=O)NCc3ccco3)c3nc4ccccc4nc32)cc(OC)c1OC	16%	?	16%	-18%	-13%	-11%	?	0%
COc1ccc2[nH]c3c(c2c1)CCN1C(=O)C(CC(=O)NCCCN(C)C)C[C@H](C(=O)N2CCCCC2)[C@@]31C (some centres undefined)	.	.	1%	.	-7%	.	-7%	3%
CN(Cc1c(F)cccc1Cl)C(=O)c1ccc(NC(=O)CC2SC(N3CCCCC3)=NC2=O)cc1 (centres undefined)	.	.	-3%	-20%	71%[activator]	.	?	9%
Cc1ccc(NC(=O)Nc2nnc(N3CCCCC3)s2)c(C)c1	.	17%	.	2%[46.1 µM]	12%	-2.6%	-10%[46.1 µM]	.
CC(=O)c1coc2c1cc(O)c1ccccc12	-12%	3%	3%	9%	45%[activator]	-1.7%	?	-9%
Cc1ccc(CN2CCN(Cc3cn[nH]c3-c3ccccc3)CC2CCO)o1 (centres undefined)	2%	.	-1%	9%[46.1 µM]	0%	.	?	-6%
CCOc1ccc(CN(C(=O)c2cc(=O)c3cc(C)cc(C)c3o2)C2CCS(=O)(=O)C2)cc1 (centres undefined)	-19%	?	-4%	-10%[46.1 µM]	4%&-2%	-6.8%	?	9%
Cc1sc2ncnc(NC(C)C(=O)O)c2c1C (centres undefined)	5%	.	0%	6%[46.1 µM]	0%	.	5%	-10%
COC(=O)Nc1ccc(S(=O)(=O)N2CCCCC2C(=O)NCc2ccco2)cc1 (centres undefined)	2%	-3%	-17%	-15%	-1%	-7.0%	?	10%
CCC(=O)OCCNc1cc(Sc2nc3ccccc3s2)c2nonc2c1[N+](=O)[O-]	-209%	-11%	-32%	?	25µM*	-15%	?	?
Cc1cc2ccccc2nc1SCC(=O)NC1CCCC1	-4%	.	-8%	-13%	-12%	.	-17%[46.1 µM]	24%
Cc1ccc(S(=O)(=O)N2CCN(C(=O)CCc3c[nH]c4ccccc34)CC2)c(C)c1	.	.	-4%	?	-1%	.	7%	-9%
O=C(c1ccccc1F)N1CCC(O)(c2cccnc2)CC1	0%	4%	1%	9%	4%	-1.4%	11%	21%
COc1ccccc1N1CCN(c2nc(C)cc(=O)[nH]2)CC1	.	.	.	3%[46.1 µM]	-10%	.	?	-6%
CCCNS(=O)(=O)c1ccc(-n2cnnn2)c(OC)c1	1%	.	0%	3%[46.1 µM]	30%[activator]	.	5%[46.1 µM]	4%
COc1ccc2nc(SCC(N)=O)cc(C)c2c1	-5%	2%	0%	-2%	0%	-5.6%	13%	7%
COc1ccc(-n2c3c(cc(C(=O)NNc4ccccc4)c2=O)C(=O)CC(C)(C)C3)cc1	.	.	-4%	?	-1%	.	?	230%
O=C(CCCCn1c(=O)c2ccccc2n(Cc2ccccc2Cl)c1=O)NCCc1ccccc1	.	20%	.	14%[46.1 µM]	-9%	2.4%	2%[46.1 µM]	.
Cc1cc2c(=O)n(Cc3ccco3)c(SCC(=O)N3CCCc4ccccc43)nc2s1	5%	?	-8%	?	.	-3.4%	?	-19%

Bioassay records deposited in PubChem BioAssay by National Center for Advancing Translational Sciences (NCATS).
